High-throughput results as filed in PubChem.
Mtb betalactam – beta-lactam sensitization of Mtb H37Rv; M. tuberculosis H37Rv growth with meropenem, percent inhibition; hits of this screen are not shown here; inhibition, % at 25 µM; 330,000 tested, 0.27% active; AID 434955;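 active = about 74% or more and at least 40 points above the plate without the antibiotic, then above 30% in a dose series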;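 also: growth measured after seven days incubation then overnight dye step; 0% = bacteria only wells and 100% = bacteria with antibiotic; twin plates without the antibiotic show which effects depend on it; some results filed as inactive read as strong as hits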
Arbovirus anti – antivirals against arbovirus infection | arbovirus infection cell-based antiviral screen | inhibition, % at 10 µM | 200,000 tested, 0.37% active | AID 1251;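 active = inhibition from about 30%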;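 also: bluetongue infection of BSR cells; cell survival read as ATP light after 72 h; 0% = infected wells without compound and 100% = uninfected wells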
RecA intein inh – Mtb RecA intein splicing inhibition; P9WHJ3; inhibition, %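 (about 9 µM by stock and volumes)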; cell-free RecA intein splicing, fluorescence; 290,000 tested, 0.75% active; in the data active = inhibition above about 30%;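 also: 0% = vehicle wells and 100% = reference inhibitor control wells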
Target sequence (P9WHJ3 whole entry, looked up): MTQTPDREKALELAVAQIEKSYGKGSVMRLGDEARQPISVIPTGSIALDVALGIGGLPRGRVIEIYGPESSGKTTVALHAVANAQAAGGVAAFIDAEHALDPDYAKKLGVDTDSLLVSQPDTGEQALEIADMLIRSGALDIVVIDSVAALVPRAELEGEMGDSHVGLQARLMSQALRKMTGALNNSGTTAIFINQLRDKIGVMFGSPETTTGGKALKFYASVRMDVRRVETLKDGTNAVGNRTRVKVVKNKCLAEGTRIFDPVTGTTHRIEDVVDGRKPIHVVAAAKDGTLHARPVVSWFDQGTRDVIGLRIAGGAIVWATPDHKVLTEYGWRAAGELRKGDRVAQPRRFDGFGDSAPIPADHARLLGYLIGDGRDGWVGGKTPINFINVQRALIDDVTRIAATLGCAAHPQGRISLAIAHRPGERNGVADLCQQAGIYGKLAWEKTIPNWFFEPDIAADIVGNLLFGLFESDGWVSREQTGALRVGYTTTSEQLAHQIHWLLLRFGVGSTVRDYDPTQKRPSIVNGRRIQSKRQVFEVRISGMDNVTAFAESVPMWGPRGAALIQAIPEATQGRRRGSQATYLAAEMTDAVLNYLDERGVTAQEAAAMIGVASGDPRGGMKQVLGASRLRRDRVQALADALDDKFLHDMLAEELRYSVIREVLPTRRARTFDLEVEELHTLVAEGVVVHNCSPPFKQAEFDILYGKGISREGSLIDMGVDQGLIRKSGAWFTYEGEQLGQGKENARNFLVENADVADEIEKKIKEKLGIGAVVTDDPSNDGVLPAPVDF
YopH inh – inhibitors of Yersinia enterocolitica YopH tyrosine phosphatase; fluorescence Ex485/Em525; 140,000 tested, 0.16% active; inhibition, %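 (about 10 µM by stock and volumes)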;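 active = inhibition of 50% or more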;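 also: controls were vehicle for no effect and minimum signal wells for full effect; inactives centre near -20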
Mtb growth – M. tuberculosis H37Rv growth inhibitors, H37Rv strain (AID 1626); 220,000 tested, 0.95% active; M. tuberculosis H37Rv growth inhibition; higher % means a stronger effect; inhibition, % at 10 µM; hits with a dose series show IC50 in µM;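 active = confirmed in a dose series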;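 also: bacteria incubated seven days before Alamar blue readout; 0% = bacteria only wells and 100% = bacteria with antibiotic wells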
Arbovirus anti repeat – second read-out of Arbovirus anti, no call of its own (marks repeat the call); inhibition, %; measured here: 10K subset replicate screen; many hits read low in the repeat;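 first of two repeat runs on a subset; 0% = infected and 100% = uninfected wells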
* hit, by the source's call; nt = not tested or not shown. Some of the compounds tested; rates above refer to the full screens.

SMILES	Mtb betalactam	Arbovirus anti	RecA intein inh	YopH inh	Mtb growth	others
Cc1c(CC(=O)O)c(=O)oc2cc(OCc3ccc(F)cc3Cl)ccc12	-8	nt	2.9	nt	nt
Cc1ccc(C(=O)c2ccccc2C(=O)Nc2ccccc2)cc1	1	nt	4.5	nt	nt
Cc1ccc2nc(-c3ccncc3)cc(C(=O)Nc3ccc(F)cc3C)c2c1	-4	nt	-0.6	nt	nt
CSc1sc(C(=O)NNC(=O)c2ccc(Cl)cc2)c2c1C=CCC2	-5	nt	7.1	nt	-13%
COc1ccc(C(=O)/C=C/Nc2cc(C)on2)c(OC)c1	4	3	-3.6	-24	-4%
CS(=O)(=O)Cc1cc(N2CCCC2)nc(-c2ccccc2)n1	-4	-7	0.1	nt	5%
Cc1cc(=O)[nH]c(-c2ccccc2)n1	-6	-4	2.0	-16	4%
CC(C)N1CCN(Cc2cc3c(cc2Cl)OCO3)CC1CCO (centres undefined)	4	nt	-2.8	nt	-8%
C/C(=N\NC(=O)CC(C)C)c1ccc(Cl)c(Cl)c1	-7	-10	2.3	-6	-1%
C=CCn1c(SCc2ccccc2F)nc2cc(C(=O)O)ccc2c1=O	-2	nt	-2.5	nt	nt

Among those listed so far, two have a COOH group.
SMILES	Mtb betalactam	Arbovirus anti	RecA intein inh	YopH inh	Mtb growth	others
Cc1c(CC(=O)O)c(=O)oc2cc(OCc3ccc(F)cc3Cl)ccc12	-8	nt	2.9	nt	nt
C=CCn1c(SCc2ccccc2F)nc2cc(C(=O)O)ccc2c1=O	-2	nt	-2.5	nt	nt

The main list resumes; the 5 compounds before the break are reprinted first.
SMILES	Mtb betalactam	Arbovirus anti	RecA intein inh	YopH inh	Mtb growth	others
CS(=O)(=O)Cc1cc(N2CCCC2)nc(-c2ccccc2)n1	-4	-7	0.1	nt	5%
Cc1cc(=O)[nH]c(-c2ccccc2)n1	-6	-4	2.0	-16	4%
CC(C)N1CCN(Cc2cc3c(cc2Cl)OCO3)CC1CCO (centres undefined)	4	nt	-2.8	nt	-8%
C/C(=N\NC(=O)CC(C)C)c1ccc(Cl)c(Cl)c1	-7	-10	2.3	-6	-1%
C=CCn1c(SCc2ccccc2F)nc2cc(C(=O)O)ccc2c1=O	-2	nt	-2.5	nt	nt
CC(=O)NCCOc1nc(N(C)C)nc(N2CCOCC2)n1	-12	12	-1.4	-33	0%
CC(C)CC1NC2(C(=O)N(C)c3ccccc32)C2C(=O)N(C(C)C)C(=O)C12 (centres undefined)	-3	5	1.4	-35	1%	Arbovirus anti repeat=3
O=C(NC(=S)Nc1ccccc1[N+](=O)[O-])c1ccccc1	1	nt	7.1	nt	3%
CCCCCn1c(=O)c(C(=O)NCc2ccco2)c(O)c2ccccc21	6	-3	-0.8	nt	-6%
O=C(NCc1ccccc1)c1ccc2c(=O)[nH]c3c(C(=O)NCC4CCCO4)sc(=S)n3c2c1 (centres undefined)	20	-15	-48	nt	2%
O=C(O)CCC(=O)Nc1ccc2c(c1)Cc1cc(NC(=O)CCC(=O)O)ccc1-2	9	nt	-3.8	nt	nt
CC1CCCCN1CC(=O)c1c(N)n(Cc2ccccc2)c(=O)n(C)c1=O (centres undefined)	-9	9	-1.0	nt	4%
Cc1ccccc1CSc1n[nH]c(NS(=O)(=O)c2ccccc2)n1	-4	-1	-6.8	-19	-2%
CCCCNC(=O)CC1N=C2c3ccccc3N=C(SCC(=O)Nc3ccc(OC)cc3)N2C1=O (centres undefined)	-3	-4	-0.6	-59	2%
COc1ccc(/C=N/Nc2snc(SC)c2C#N)cc1OC	-2	26	-1.5	18	1%
O=C(Cn1nnc2c(cnn2-c2ccccc2)c1=O)N1CCN(c2ccccc2F)CC1	74	1	-2.0	-36	54%
COc1ccc(N2C(=O)CSC23C(=O)Nc2ccccc23)cc1 (centres undefined)	-4	10	-3.3	-28	-4%
CCNS(=O)(=O)c1ccc(NC(=O)Cn2nc(C(F)(F)F)cc2C)cc1	-4	8	-1.2	-33	-9%
COc1ccc(-c2cc(C(=O)OCC(=O)NC(C)C)c3ccccc3n2)cc1	-1	6	-0.6	nt	3%
CCOC(=O)/C(C#N)=C/NC(=O)NC(C)(C)C	-5	3	1.6	-28	-1%
COC(=O)CN1C(=O)[C@H]2[C@@H](c3ccc(C)o3)N3C(=O)CN(Cc4ccc(-c5ccccc5)cc4)C(=O)[C@@]3(C)[C@H]2C1=O	-9	nt	1.2	nt	nt
CCCN(CCC)S(=O)(=O)c1cc(CN2C(=O)c3cccnc3C2=O)ccc1OC	-3	nt	-2.7	nt	nt
COCCn1c(SCc2c(F)cccc2Cl)nc2c1c(=O)[nH]c(=O)n2C	2	1	1.3	-18	0%
COc1ccc(NC(=O)CN(Cc2ccccc2)Cc2ccccc2)cc1S(N)(=O)=O	3	1	4.4	-28	4%
COC(=O)c1ccc(NC(=O)CSc2nnc(-c3ccncc3)n2C)cc1	6	0	0.8	-46	-5%

Structures from the list above with a furan ring, fused or not:
SMILES	Mtb betalactam	Arbovirus anti	RecA intein inh	YopH inh	Mtb growth	others
CCCCCn1c(=O)c(C(=O)NCc2ccco2)c(O)c2ccccc21	6	-3	-0.8	nt	-6%
COC(=O)CN1C(=O)[C@H]2[C@@H](c3ccc(C)o3)N3C(=O)CN(Cc4ccc(-c5ccccc5)cc4)C(=O)[C@@]3(C)[C@H]2C1=O	-9	nt	1.2	nt	nt

The listing continues:
SMILES	Mtb betalactam	Arbovirus anti	RecA intein inh	YopH inh	Mtb growth	others
CCOC(=O)C1=C(c2ccccc2)NC(=O)N(C(C)=O)C1c1cccc([N+](=O)[O-])c1 (centres undefined)	-1	3	-2.7	nt	-6%
O=c1c2cc(N3CCOCC3)ccc2[nH]c(=S)n1Cc1cccc(Cl)c1	-3	1	-6.4	-4	2%
Cc1ccc(C)n1-c1ccc(N2CCOCC2)c(Br)c1	-8	0	2.6	-24	4%
Cc1cc(C)c(S(=O)(=O)N2CCCCC2C(=O)O)c(C)c1 (centres undefined)	9	0	-0.6	nt	14%
CN1CCN(S(=O)(=O)c2ccc(NC(=O)c3cccs3)cc2)CC1	-10	8	0.7	-1	1%
CCn1cc(CN2CCc3c([nH]c4ccccc34)C2c2cccc(O)c2)c(C)n1 (centres undefined)	-4	-5	-4.4	nt	-2%
Cc1nnc2ccc(-c3ccc(NC(=O)c4ccc(Cl)nc4)cc3)nn12	4	-3	-0.6	nt	-1%
CCN(CC)CC#CCC(O)(c1ccccc1)C1CCCC1 (centres undefined)	0	-3	-3.6	6	-5%
Cc1ccc2nc(Nc3ccccc3)cc(C)c2c1	46	nt	7.0	nt	nt
COc1ccccc1N1CCN(C(=O)CN(CCc2ccccc2)S(C)(=O)=O)CC1	0	16	-6.1	-5	-8%
O=C1OCCC1NC1=NCCC1 (centres undefined)	-1	3	-5.1	-37	0%
CCOc1ccccc1CNC(=O)C1CCCN(c2nnc(C)c3c(C)n(-c4ccccc4)nc23)C1 (centres undefined)	0	nt	-2.3	nt	nt
CCCOC(=O)c1c(NC(=O)CCCn2nc([N+](=O)[O-])cc2C)sc(C(=O)OC)c1C	8	-6	7.9	-25	-7%
O=C1NC(=O)N(Cc2cccs2)C(=O)/C1=C/c1ccc(N2CCOCC2)cc1	-4	8	1.2	nt	0%
O=C(NCC(c1ccc(F)cc1)N1CCOCC1)c1ccco1 (centres undefined)	-8	nt	-1.6	nt	nt
CSc1ccc(C(=O)C2CCCN(Cc3cccnc3)C2)cc1 (centres undefined)	1	8	-8.2	nt	4%
Cc1nc2c3cc(F)ccc3n(CCN3CCCCC3)c2s1	-1	-18	-0.2	nt	7%
COc1ccccc1NC(=O)c1cc2c(CO)cnc(C)c2oc1=Nc1cc(OC)c(OC)c(OC)c1	10	nt	8.2	nt	nt
Cc1ccc(Cl)c(OCC(=O)Nc2ccccc2N2CCCCC2)c1	5	nt	-3.9	nt	nt
O=C(O)C1(P(=O)(c2ccccc2)c2ccccc2)CCCC1	0	nt	-1.3	nt	1%
Oc1ccc(Nc2nc(N3CCCC3)c3ccccc3n2)cc1	95	-38	10	-14	37%
COc1ccc(-c2noc(CN(C)C3CCOCC3)n2)cc1	-7	6	1.3	nt	-7%
CC1(C)Cc2c(cnn2-c2ccc(F)cc2)C(NC(=O)c2ccc(=O)oc2)C1 (centres undefined)	-16	nt	0.4	nt	nt
CC(C)OCC(O)CN (centres undefined)	0	-4	-3.4	-31	-6%
CSCCC(NC(=O)c1cccc(C)c1)C(=O)O (centres undefined)	3	5	1.5	nt	1%
CCOC(=O)c1cnn(CCOC(=O)Cc2cccs2)c1NC(=O)Cc1cccs1	-11	2	0.9	-34	-6%
Cc1cc(C(C)(C)C)ccc1NC(=O)CC(C)(C)CC(=O)O	-6	nt	-2.3	nt	nt
O=C(Nc1ccc2c(c1)CCCN2C(=O)c1ccccc1)c1ccccc1Br	92	nt	8.6	nt	nt
Cc1ccc(NC(=O)COC(=O)C2(c3ccc(Cl)cc3)CCCC2)cc1	-8	6	0.1	-6	48%
c1csc(-c2nc(N3CCCCC3)no2)c1	-6	nt	-0.1	nt	nt

The last 4 entries of the part above open the next one.
SMILES	Mtb betalactam	Arbovirus anti	RecA intein inh	YopH inh	Mtb growth	others
Cc1cc(C(C)(C)C)ccc1NC(=O)CC(C)(C)CC(=O)O	-6	nt	-2.3	nt	nt
O=C(Nc1ccc2c(c1)CCCN2C(=O)c1ccccc1)c1ccccc1Br	92	nt	8.6	nt	nt
Cc1ccc(NC(=O)COC(=O)C2(c3ccc(Cl)cc3)CCCC2)cc1	-8	6	0.1	-6	48%
c1csc(-c2nc(N3CCCCC3)no2)c1	-6	nt	-0.1	nt	nt
C[C@@H]1OC(Nc2ccc(N=Nc3ccccc3)cc2)[C@H](O)[C@H](O)[C@H]1O (some centres undefined)	87	nt	3.1	nt	49%
O=C1/C(=C/c2cccnc2)SC(=NCc2ccccc2)N1Cc1ccccc1	1	-8	-1.8	nt	4%
COc1ccc(C(=O)O/N=C/c2c(C(F)(F)F)nn(C)c2SCc2ccccc2Cl)cc1	3	-32	2.0	-46	-1%
CCCCC1(C)OC(=O)C(=Cc2ccc(SC)cc2)C(=O)O1 (centres undefined)	-4	4	1.7	nt	3%
O=C(Nc1ccc(F)cc1F)C1CCN(c2ncnc3c2sc2cccc(F)c23)CC1	1	nt	-0.4	nt	nt
COn1c2c(c3c4no[n+]([O-])c4ccc31)CCCC2	7	15	-8.2	-21	2%
COCCNC(=O)c1cc2cc3ccc(OC)cc3nc2o1	-2	nt	0.6	nt	nt
